# Sfp inh = blocks B. subtilis Sfp PPTase activity. Q9F4F7. Biochemical Sfp PPTase activity, qHTS. Potency, µM, without a hit: max response, negative = inhibition, most hits filed as inhibitors. 310,000 tested, 3.5% active. AID 1490; active means well fitted inhibition curve with a large enough effect; inconclusive means small, poorly fitted or top-dose-only effect, or another doubt; inactive means no such curve, though single readings can be large or run the other way;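 further: the enzyme is Sfp with the accession as filed and its product quenches rhodamine fluorescence; potency means the concentration at half of the fitted maximal effect; 0% = enzyme reaction without inhibitor and -100% = no enzyme wells; top concentration of the series not given in the record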
#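 With Hepes-Na pH 7.6 buffer containing 10 mM MgCl2, Sfp (15 nM) modified BHQ-2-YbbR (12.5 uM) using rhodamine-CoA (5 uM). Two reads 30 minutes apart at 525/598 nm yielded each well's rate.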
# Menin MLL FP FL = inhibitors of human menin-MLL interaction, wild-type MLL peptide; 290,000 tested, under 10 active; FP activity change, % at 61.4 µM; AID 1766; Fluorescence polarization, fluorescein-MLL peptide displacement from menin; inconclusive = falling polarisation curve, or a change in total fluorescence; inactive = total fluorescence flat and polarisation flat or rising; no compound was filed as active; the % refers to the polarisation; negative = inhibition;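 further: % of control where 0% means no effect; inhibitors lower the polarisation; unlabelled MLL peptide was the positive control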
# An asterisk follows results filed as active; ? = inconclusive; & = joins results of further samples; ! = a repeat was not active; [ ] = remark or other dose.
SMILES,Sfp inh,Menin MLL FP FL
Cn1cccc1C(=O)N1CCC2(CCCN(C(c3ccccc3)c3ccccc3)C2)CC1,4%,13
COC(=O)[C@@H](NC(=O)O[C@@H]1C(=O)c2ccc(OC)cc2O[C@H]1c1ccc2c(c1)OCO2)C(C)C,-12%,3.5
O=C(Nc1cccc(F)c1)N1CC2(CCN(C(=O)c3cnccn3)CC2)C1,12%,-1.4
O=c1cnc2cnc(N3CCNCC3)nc2n1Cc1ccc(F)cc1,2%,12
CNc1ncnc2ccc(-c3cccc(NS(C)(=O)=O)c3)cc12,-8%,0.0
O=C(O)/C=C\c1ccc(O)c(O)c1,35µM*,-2.7[24.8 µM]
COC(=O)[C@@]1(Cc2ccccc2)[C@H]2c3cc(C(=O)N4CCCC4)n(Cc4c(CO)[nH]cc(C)c4=O)c3C[C@H]2CN1C(=O)c1ccccc1,12%,-0.1
CC(=O)c1c(O)cccc1O,25µM*,-0.6
CS(=O)(=O)Nc1cccc(-c2ccc3ncnc(Nc4ccc(F)cc4)c3c2)c1,2%,-5.3
CC(C)(C)N1C(=O)[C@H]2[C@H]3[C@H](O)[C@H](O)C/C(=N/OC[C@@H](O)COCc4ccco4)[C@H]3CC[C@@H]2C1=O,21%,-0.7[11.7 µM]
CN(Cc1ccco1)c1ccnc(-c2cccnc2)n1,-16%,2.0
COCCn1c(=O)c(-c2ccc(F)cc2)nc2cnc(Oc3cccc(Cl)c3)nc21,-5%,-7.8
COc1ccc(-n2c(=O)c(-c3cn(C)c4ccccc34)nc3cncnc32)cc1,3%,?
CCCOC(=O)NCCCN(C)C,17%,0.3
COc1ccccc1CNc1ncncc1-c1ccccc1C,0%,-1.2
O=C(c1ccncc1)N1CCC2(CCCN(c3ccncc3)C2)CC1,11%,-4.2
COc1ccccc1CNc1ncncc1-c1ccc2c(c1)OCO2,-6%,-3.5
O=C(O)[C@@H](O)[C@@H](O)[C@H](O)C(=O)CO,10%,1.0
C[C@@H]1C(=O)NC2=Nc3cccc(Cl)c3CN21,7%,6.5
CSCC[C@H](N)C(=O)N[C@@H](CO)C(=O)N[C@@H](CCCN=C(N)N)C(=O)N1CCC[C@H]1C(=O)N[C@@H](C)C(=O)N[C@@H](CS)C(=O)N1CCC[C@H]1C(=O)N[C@@H](CC(N)=O)C(=O)N[C@@H](CC(=O)O)C(=O)N[C@@H](CCCCN)C(=O)N[C@@H](Cc1ccc(O)cc1)C(=O)N[C@@H](CCC(=O)O)C(=O)O,2%,1.3
O=C1CC(c2ccc(Cl)cc2)CC(O)=C1C=NCCN1CCNCC1 (centres undefined),-7%,3.9
Cc1ccc(S(=O)(=O)OC[C@@H]2CN3[C@H](c4ccc(Br)cc4)[C@H](C)CC[C@H]3C(=O)O2)cc1,1%,3.1[11.7 µM]
Cc1nc2ccc(NC(=O)Nc3ccnc4cccnc34)cc2o1,-8%,?
COC1=C(OC)C(=O)C(C/C=C(\C)CC/C=C(\C)CC/C=C(\C)CC/C=C(/C)CC/C=C(\C)CC/C=C(\C)CC/C=C(\C)CC/C=C(\C)CC/C=C(\C)CCC=C(C)C)=C(C)C1=O,11%,-7.0
CCn1c(SCC(=O)N2CCOCC2)nc2oc3c(Cl)cc(Cl)cc3c(=O)c2c1=O,?,?

# Next entries.
SMILES,Sfp inh,Menin MLL FP FL
CC(=O)OCC(=O)[C@@]1(O)CCC2C3CCC4=CC(=O)CC[C@@]4(C)[C@]3(F)C(O)C[C@]21C (some centres undefined),10%,2.9
COC(=O)[C@@]1(Cc2ccccc2)[C@H]2c3cc(C(=O)N4CCCC4)n(Cc4ccc(OC)c(OC)c4)c3C[C@H]2CN1C(=O)c1ccccc1,-2%,0.7
CC(C)(C)OC(=O)NC(Cc1ccccc1)C(=O)NC1COC2CC(n3cc(F)c(=O)[nH]c3=O)OC12 (centres undefined),4%,-0.3
COc1c(O)cc2oc3cc(O)c(CC=C(C)C)c(O)c3c(=O)c2c1CC=C(C)C,3%&-3%&17%,?
O=C1c2c(O)cc(O)cc2O[C@H](c2ccc(O)c(O)c2)C1O (some centres undefined),-22%,?
CCCn1c(-c2ccc(F)cc2)nc2c(N(C)CCN(C)C)nc(C)nc21,33%[activator],0.2
CN(C)c1ncc2ncc(=O)n(CCc3ccccc3)c2n1,12%,-1.0
COC(=O)N[C@@H](c1cccc(F)c1)[C@@H](C)[N+](=O)[O-],7%,-3.4
O=C(c1cnccn1)N1CCC2(CCCN(c3cccc(-c4ccccc4)c3)C2)CC1,-18%,?
CCOCC,4%,-1.3
CC1(C)CC2C1CCC1(C)OC1CCC2(C)O (centres undefined),3%,-1.9
CS(=O)(=O)Nc1cccc(-c2cc(NCc3ccccc3)ncn2)c1,2%,4.1
CCN1C(=O)[C@H]2[C@H]3[C@H](O)[C@H](O)C/C(=N/NC(=O)OCc4ccccc4)[C@H]3CC[C@@H]2C1=O,-9%,-2.0[11.7 µM]
COc1ccccc1-c1ccc2ncnc(NC3CCNCC3)c2c1,2%,-2.0
CCCC[C@@H]1C[C@H]1C(NS(=O)(=O)c1cccc2cccnc12)c1ccc(-c2ccccc2)cc1 (some centres undefined),-18%,1.8
N#Cc1cccc(-c2nc(Nc3ccncc3)c3ccccc3n2)c1,-7%,-0.8
COC(=O)N1CCC2(CCCN(c3cccc(-c4ccccc4)c3)C2)CC1,?,1.6
CC(=O)OC1C(=O)[C@@]2(C)C(O)CC3OC[C@]3(OC(C)=O)C2C(OC(=O)c2ccccc2)[C@]2(O)CC(OC(=O)C(O)C(NC(=O)c3ccccc3)c3ccccc3)C(C)=C1C2(C)C (some centres undefined),-43%,-8.6
COc1ccc(C2OCC3(COC(C)=O)C(C)C=C(C)C2C3C)cc1 (centres undefined),-7%,-11
Nc1nc2ncc(=O)[nH]c2c(=O)[nH]1,-19%,?
CCCCc1cc2c(cn1)=C(OC(=O)C1CCCC1)C(C)(OC(=O)CC)C(=O)C=2 (centres undefined),10%,2.9[11.7 µM]
O=C1C=C(O)c2ccccc2C1=O,79µM*!,-5.9&1.6
COc1ccc(C(=O)N2CCC3(CCN(C(=O)Nc4cccc(C#N)c4)CC3)CC2)cc1,14%,-11
CCCCC/C=C\C/C=C\C/C=C\C/C=C\CCCC(=O)C(F)(F)F,28µM*,9.6
CCCCC#CC1C=CC(Oc2cc(OC)c(OC)c(OC)c2)C(CO)O1 (centres undefined),0%,1.2[11.7 µM]

# Following part.
SMILES,Sfp inh,Menin MLL FP FL
Clc1ccccc1-c1nc(NCc2cccnc2)c2ccccc2n1,-11%,0.2
CC(C)=C1C(=O)C(c2ccccc2)=C2CN3C(=O)N(CCc4ccccc4)C(=O)[C@]3(C)[C@H]21,-2%,14
O=C(Nc1ccccc1)N1CC2(CCN(C(=O)c3cnccn3)CC2)C1,2%,-0.7
CCOC(=O)N/N=C1/C[C@@H](O)[C@@H](O)[C@@H]2[C@@H]3C(=O)N(C4CCCCC4)C(=O)[C@H]3CC[C@@H]12,2%,1.3[11.7 µM]
CN(C)c1ncnc2ccc(-c3cccc(NS(C)(=O)=O)c3)cc12,30%,5.0
CCOC(=O)OCC1OC(c2ccc(C(C)=O)cc2)C=CC1Oc1ccc(-c2ccccc2)cc1 (centres undefined),25%,-0.1[11.7 µM]
O=c1c(-c2ccc(Cl)cc2)nc2cnc(N3CCOCC3)nc2n1C[C@H]1CCCO1,23%,-2.9
CC(C)c1cccc2c([Si](C)(C)C)c3c(nc12)-c1cccc(=O)n1C3,45µM*,4.5
Cc1ccc(S(=O)(=O)N2CCc3nc(-c4ccccc4)c4c(c3C2)CO[C@@H](C)C4)cc1,-5%,5.7[11.7 µM]
C=CC(C1=CC(=O)C(OC)=CC1=O)c1ccc(OC)cc1 (centres undefined),40µM*,-2.3
C=C(C(C)=O)C(O)c1ccc(Cl)cc1 (centres undefined),9%,-1.5
NC(N)=NCCC[C@H](NC(=O)CC1(CC(=O)N2CCN(C3c4ccccc4NC(=O)c4ccccc43)CC2)CCCC1)C(=O)NCCn1c(=O)n(-c2ccccc2)n(-c2ccccc2)c1=O (some centres undefined),?,-0.8
COc1cccc(-c2ccc3ncnc(NCc4ccc(OC)cc4OC)c3c2)c1,-2%,-7.7
CCC/C=C(\CCC)C(NS(=O)(=O)c1ccc(Cl)cc1)c1ccc(C(=O)OC)cc1 (centres undefined),26%,0.6
CCCCc1nc2c(c3c1C[C@H](C)OC3)CN(C(=O)COC)CC2,-11%,3.3[11.7 µM]
CCCCC/C=C\C/C=C\CCCCCCCC(=O)NCC(=O)O,16%&12%,0.5
CSCC[C@H](N)C(=O)N[C@@H](C)C(=O)NCC(=O)N[C@@H](CCCN=C(N)N)C(=O)N[C@@H](CO)C(=O)NCC(=O)N[C@@H](CC(=O)O)C(=O)N[C@@H](CO)C(=O)N[C@@H](CC(=O)O)C(=O)N[C@@H](CCC(=O)O)C(=O)N[C@@H](CC(=O)O)C(=O)N[C@@H](CC(C)C)C(=O)N[C@@H](CC(C)C)C(=O)N[C@@H](CCCCN)C(=O)N[C@@H](C)C(=O)N[C@H](C(=O)O)C(C)C,-1%,-7.3
Cc1noc(C)c1C(=O)N1CCC2(CC1)CN(c1ccccn1)C2,5%,-5.3
COc1cccc(N(C)C(=S)Oc2ccc3c(c2)CCCC3)n1,7%,-1.8
Clc1ccccc1-c1nc(NCc2cccs2)c2ccccc2n1,2%,1.0
N[C@H]1CCN(O)C1=O,-17%,2.7&-5.5
CC(C)c1ccc2c(c1)CCC1C(C)(C(N)=O)CCCC21C (centres undefined),-6%,-0.9
COc1ncc2nc(C)c(=O)n(CCc3ccccc3)c2n1,19%,5.6
CCOc1ccccc1-c1nnc2n1N=C(c1ccccc1OC)CS2,-7%,-1.1
CCOC(=O)C[C@@H](C(=O)OCC)[C@@H]1CCCCC1=O,-10%,1.2[11.7 µM]

# Looked up one by one from the list above:
SMILES,Sfp inh,Menin MLL FP FL
CC(C)c1ccc2c(c1)CCC1C(C)(C(N)=O)CCCC21C (centres undefined),-6%,-0.9
CC(C)c1cccc2c([Si](C)(C)C)c3c(nc12)-c1cccc(=O)n1C3,45µM*,4.5

# Exported with tabs: part of the list above
SMILES	Sfp inh	Menin MLL FP FL
Clc1ccccc1-c1nc(NCc2cccnc2)c2ccccc2n1	-11%	0.2
CC(C)=C1C(=O)C(c2ccccc2)=C2CN3C(=O)N(CCc4ccccc4)C(=O)[C@]3(C)[C@H]21	-2%	14
O=C(Nc1ccccc1)N1CC2(CCN(C(=O)c3cnccn3)CC2)C1	2%	-0.7

# Going on with the list:
SMILES,Sfp inh,Menin MLL FP FL
COC(=O)CCN(Cc1ccco1)S(=O)(=O)c1ccc(F)cc1Br,31%,0.2
COc1ccc(-c2nc3cnc(N4CCN(C)CC4)nc3n(CCc3ccccc3)c2=O)cc1,26%,?
CCCCC/C=C\C/C=C\C/C=C\C/C=C\CCCCCC(N)=O,-12%,-5.7
N#Cc1cccc(CS(=O)(=O)c2nnnn2-c2cc(C(F)(F)F)cc(C(F)(F)F)c2)c1,-19%,-0.2
COCCn1c(=O)c(-c2cc(F)cc(F)c2)nc2cnc(N3CCN(C)CC3)nc21,7%,-18
COc1ccc(-c2nc3c(c4c2C[C@H](c2ccccc2)OC4)CN(C(=O)NCc2ccco2)CC3)c(C)c1,8%,-1.8[11.7 µM]
CCNc1ncc2nc(CCc3ccccc3)c(=O)n(-c3ccccc3)c2n1,-24%,?
O=c1cnc2cnc(N3CCNCC3)nc2n1C1CC1,27%,-1.3
COc1c(-c2coc3cc4c(cc3c2=O)CC(OC(C)=O)C(C)(C)O4)ccc2c1C=CC(C)(C)O2 (centres undefined),-11%,5.9
COc1ccc(Oc2ncc3nc(-c4ccc(OC)cc4)c(=O)n(C4CC4)c3n2)cc1,20%,1.8
CS(=O)(=O)Nc1cccc(-c2nccc(Nc3ccc(F)cc3)n2)c1,-2%,13
COc1cc(C2c3[nH]c4ccccc4c3CC3C(=O)N4C(Cc5c([nH]c6ccccc56)C4c4cc(OC)c(OC)c(OC)c4)C(=O)N32)cc(OC)c1OC (centres undefined),-1%,0.2[11.7 µM]
CCNc1ncc2nc(-c3ccc(Cl)cc3)c(=O)n(-c3ccc(OC)cc3)c2n1,31%[activator],?
CCCCNC(=O)NS(=O)(=O)c1ccc(N)cc1,-26%,2.1
CC(C)[C@H](NC(=O)OC(C)(C)C)[C@@H](O)CC(=O)OC(C)(C)C,30%,1.9[11.7 µM]
CC(=O)OCCBr,-11%,-2.5
CCc1c2c(nc3ccc(OC)cc13)OC(CC)C2 (centres undefined),15%,-0.4
CC1(C)O[C@@H]2[C@@H](O1)C(c1ccccc1)(c1ccccc1)OP(=O)(O)OC2(c1ccccc1)c1ccccc1,-4%,-1.2
COc1ccc(OCC2CC3C(CCC(C)C3c3ccc(Br)cc3)C(=O)O2)cc1 (centres undefined),12%,-4.8[11.7 µM]
CCC(=O)CC(NC(=O)OC)c1ccc(F)cc1 (centres undefined),22%,2.4[11.7 µM]
COC(=O)c1ccc(C(NC(=O)OCc2ccccc2)/C(=C/[C@@H](C)C(=O)NCc2ccc(-c3ccccc3)cc2)c2cccnc2)cc1 (some centres undefined),28%,2.4
COc1cccc(-c2cncnc2NCc2cccc(C)c2)c1,-12%,2.1

# An excerpt from above in order of number of heavy atoms, falling.
SMILES,Sfp inh,Menin MLL FP FL
COc1cc(C2c3[nH]c4ccccc4c3CC3C(=O)N4C(Cc5c([nH]c6ccccc56)C4c4cc(OC)c(OC)c(OC)c4)C(=O)N32)cc(OC)c1OC (centres undefined),-1%,0.2[11.7 µM]
COC(=O)CCN(Cc1ccco1)S(=O)(=O)c1ccc(F)cc1Br,31%,0.2
CCC(=O)CC(NC(=O)OC)c1ccc(F)cc1 (centres undefined),22%,2.4[11.7 µM]

# Some of the compounds tested (hit frequency here may not be typical).
